PINK1 expr mod – A Quantitative High throughput Screen to Identify Chemical Modulators of PINK1 Expression; PINK1 immunofluorescence, high-content cytometry, 24 h; hit rate 0.2% among 410,000; AID 624263, 2012; Potency, µM (series often up to 76.6 µM), without a hit: at the top dose activation (PINK1 increase), actives largely listed as activators; active = well fitted activation curve with a large enough effect; inconclusive = small, poorly fitted or top-dose-only effect; inactive = flat fitted curve, though single readings scatter; cell line not stated here;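 further: % of control where 0% means no effect; nearly all actives have a fitted effect of over 65% in size; a mitochondrial uncoupler was the plate control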
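Stable cell line treated 24 h with compounds at 5 concentrations (CCCP controls), then fixed and immunostained for PINK1 plus nuclear and cell stains; PINK1 immunofluorescence quantified by laser-scanning microplate cytometry.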
The depositor's hits bear a star; ? = inconclusive; & = joins results of further samples. Potency means the concentration at half of the fitted maximal effect. Some of the compounds tested, so the mix of outcomes need not match the whole.

PINK1 expr mod	SMILES
3.2%	CCc1cccc(NC(=O)Cc2nc(-c3ccc(OC)cc3)no2)c1
-9.4%	COc1cccc(CCNc2ncnc3c2nnn3C)c1
0.4%	Cc1ccc(N2CCN(S(=O)(=O)c3nnc(NC(=O)c4cccc(F)c4)s3)CC2)cc1
-2.4%	CC(C)Nc1cc(N2CCN(C3CCCCC3)CC2)c2noc3c2c1C(=O)c1ccccc1-3
-0.2%	COc1ccccc1Cc1nc2ccccc2nc1SCC(=O)N1CCc2ccccc21
1.6%	CC(C)(C)c1ccc(C(=O)Nc2ccc(-c3nc4ccccc4o3)c(O)c2)cc1
0.0%	O=C(COc1ccccc1)Nc1sc2c(c1C(=O)Nc1ccccc1Cl)CCCCC2
-0.9%	O=C(CSc1n[nH]c(-c2ccccc2)n1)N1CCN(c2ccc(F)cc2)CC1
2.7%	CCC1CCCCN1C(=O)Cn1c(=O)n(CCCCCC(=O)NCc2ccc(F)cc2)c(=O)c2sccc21 (stereo unspecified)
0.6%	CC1CCC(NC(=O)c2cc3c(Cl)nc4ccccc4c3s2)CC1 (stereo unspecified)
0.2%	CCN(CC)c1ccc(/C=C/c2nccc3ccccc23)cc1
0.2%	O=C(NCc1ccccc1Cl)c1ccc(CSCc2ccccc2Cl)o1
4.3%	O=c1[nH]c(SCc2ccc(Br)cc2)nc2c1CCCC2
1.4%	Cc1ccc(NC(=O)Cn2cnc3sc(C(=O)O)c(C)c3c2=O)cc1Cl
-1.1%	CCN(c1ccccc1)S(=O)(=O)c1nnc(NC(=O)C(C)Oc2ccccc2)s1 (stereo unspecified)
2.5%	COC(=O)c1c(Oc2ccc(Br)cc2)nnc(-c2ccccc2)c1-c1ccccc1
0.7%	CCOc1ccc(-c2cc3c(=O)n(CC(=O)Nc4cc(F)ccc4C)ccn3n2)cc1
1.6%	CCOC(=O)c1cc(-c2ccccc2)n(CCC(=O)NCCc2cccc(C)c2)c1C
4.0%	COc1ccc(CNC(=O)c2ccc3c(c2)N(Cc2cc(C)ccc2C)C(=O)CS3)cc1
1.9%	Cc1ccccc1Nc1c(-c2ccccc2O)nc2sccn12
1.7%	Cc1nc2cc(-c3cccc(F)c3)nn2c(C)c1CCC(=O)N1CCN(c2ccc(F)cc2)CC1
-1.3%	CCOCCCn1c(SCC(=O)Nc2ccccc2Cl)nc2c(oc3ccccc32)c1=O
-1.1%	Clc1ccc(-c2cc3ncc4c(n3n2)-c2ccccc2OC4)cc1
0.1%	CCOc1ccccc1NC(=O)Cn1c(=O)n(C(C)C)c(=O)c2oc3ccccc3c21
-0.7%	COc1ccc(CNC(=O)Cc2coc3ccc(C)cc23)cc1
2.3%	CCCOc1ccc(C2C(=O)N(C3CCCCCC3)CC(=O)N2Cc2ccc(OC)cc2)cc1OC (stereo unspecified)
4.9%	Cc1cc(C)c2c(n1)nn1c(C)c(CCC(=O)NCc3ccc(Cl)cc3)c(C)nc21
-0.4%	O=C(NCC1Cc2cccc(-c3cccnc3)c2O1)c1cc(-c2ccccc2)n[nH]1 (stereo unspecified)
2.2%	Cc1nc2sccn2c(=O)c1S(=O)(=O)Nc1ccc(N2CCOCC2)cc1
5.3%	CCOC(=O)c1c(C)oc2nc(C)nc(N3CCN(c4ccccc4)CC3)c12
1.0%	COc1ccccc1CCNC(=O)c1cccn1-c1nnc(N2CCCCC2)s1
1.7%	CC(NC(=O)c1ccc(Nc2nc3ccccc3n3nnnc23)cc1)c1ccccc1 (stereo unspecified)
7.6%	COc1ccc(OC)c(Nc2cc(C(=O)NCc3ccccc3)c3ccccc3n2)c1
-1.5%	CCc1ccc(-n2cnc3cc(C(=O)NCc4ccc(C)cc4)ccc32)cc1
2.1%	COc1ccc(-c2cc(C(=O)O)n(Cc3ccccc3)n2)cc1
-0.8%	CCCCNC(=O)Cn1c(=O)cc(C)c2c(C)nn(-c3cccc(Cl)c3C)c21
?	COc1ccc2oc(=O)c(C(=O)NCCc3c(C)[nH]c4c(Cl)cccc34)cc2c1
0.9%&1.7%	Clc1nc(NCc2cccs2)c2[nH]cnc2n1
-0.8%	Cc1ccc(CNc2nc3c(c(=O)n(C)c(=O)n3C)n2Cc2ccc(Cl)cc2)cc1
2.2%	COc1ccc(Nc2nc(-c3ccccc3)c3cc(Br)ccc3n2)cc1
2.9%	CC1=C(C(=O)Nc2cccc(F)c2)C2(CCCCC2)OC1=O
-0.4%	Cn1c(SCc2ccccc2)nnc1C1CCCN(Cc2cccc3ncccc23)C1 (stereo unspecified)
-1.0%	CC1=C(c2ccc(F)cc2)S(=O)(=O)NC1=NCc1ccccc1F
1.3%	COc1ccc(OC)c(NC(=O)c2ccccc2OC(C)=O)c1
-1.7%	CCOC(=O)c1cnc2cc(-c3ccc(Cl)cc3)nn2c1-c1ccccc1
2.1%	CCc1nn2c(=O)cc(COC(=O)c3cccs3)nc2s1
0.7%	Cc1ccc(Cl)cc1NC(=O)CSCc1cnn(-c2ccccc2)c1-n1cccc1
2.2%	Cc1ccc(-n2c(=O)c3cccnc3n2CC(=O)NCc2ccc(Cl)cc2)cc1
1.4%	CC1=C(C(=O)NCc2cccc(Cl)c2)C2(CCCCCC2)OC1=O
-1.4%	Cc1ccc(Cn2c(C)c(CNCc3ccc(OC(C)C)cc3)c(C(=O)O)c2C)cc1
-0.1%	COc1cccc(NC(=O)CSc2nc(=O)n(Cc3ccccn3)c3c2CCC3)c1
-0.4%	CCc1ccccc1NC(=O)C(=O)c1cc(C)n(-c2ccccc2F)c1C
3.7%	CCN(C(=O)c1cc2c(Cl)nc3ccc(C)cc3c2s1)c1cc(OC)ccc1OC
13%	Cc1ccc(Cl)cc1NC(=O)CC1Sc2ccccc2NC1=O (stereo unspecified)
-3.0%	CCN(CC)c1ccc(NS(=O)(=O)c2ccc(-c3coc(C)n3)cc2)c(C)c1
?	Cc1ccc2nc(NC(=O)CSc3nccn3-c3ccc(Cl)cc3)sc2c1
3.0%	CS(=O)(=O)c1ccc(C(=O)OCC(=O)Nc2ccc(OC(F)(F)F)cc2)cc1[N+](=O)[O-]
3.3%	CCOc1ccc(CCNC(=O)c2ccc(-c3nc(CSc4ccccc4)c(C)o3)cc2)cc1
1.4%	Cc1cc2nc(-c3ccc(OCc4ccc(F)cc4)cc3)cc(C(F)(F)F)n2n1
1.5%	COc1ccccc1CCNC(=O)Cc1ccc(NC(=O)N2CCSc3ncccc32)cc1

Sorted by the number under PINK1 expr mod (ascending): six of the compounds above.
PINK1 expr mod	SMILES
-1.7%	CCOC(=O)c1cnc2cc(-c3ccc(Cl)cc3)nn2c1-c1ccccc1
-1.5%	CCc1ccc(-n2cnc3cc(C(=O)NCc4ccc(C)cc4)ccc32)cc1
1.0%	COc1ccccc1CCNC(=O)c1cccn1-c1nnc(N2CCCCC2)s1
1.4%	Cc1cc2nc(-c3ccc(OCc4ccc(F)cc4)cc3)cc(C(F)(F)F)n2n1
2.1%	CCc1nn2c(=O)cc(COC(=O)c3cccs3)nc2s1
3.3%	CCOc1ccc(CCNC(=O)c2ccc(-c3nc(CSc4ccccc4)c(C)o3)cc2)cc1

Later entries
PINK1 expr mod	SMILES
5.5%	O=C1CC(c2cccc(Cl)c2Cl)c2cc3c(cc2N1)OCCO3 (stereo unspecified)
3.0%	CCOc1cccc2sc(N(Cc3cccnc3)C(=O)c3ccco3)nc12
1.0%	Cc1ccc(-c2nn(-c3ccc(F)cc3F)c3c2cnc2c(F)cccc23)cc1
?	Cc1cc(C)cc(NC2=C(c3ccccc3)C(=O)c3ccccc32)c1
0.3%	CSc1nc(=O)c2c(n1C)NC(=O)CC2c1ccccc1OC(C)C (stereo unspecified)
1.0%	Cc1oc2ncn(C)c(=O)c2c1C(=O)Nc1ccc(F)cc1
0.2%	COc1ccc(CCNC(=O)C2=C(C)C(=O)OC23CCCCC3)c(OC)c1OC
1.3%	CN1C(=O)Cc2cc(S(=O)(=O)CCC(=O)Nc3cccc(C(F)(F)F)c3)ccc21
0.4%	CC(=O)c1ccc(NS(=O)(=O)c2cccc(S(=O)(=O)c3ccc(Cl)cc3)c2)cc1
17%	CCOC(=O)c1ccc(NC(=O)CCc2c(C)nc3c(c(C)nn3C(C)(C)C)c2C)cc1
8.4%	CCc1ccc(NC(=O)CC2C(=O)N(c3ccc(OC)cc3)C(=O)N2Cc2ccc(OC)cc2)cc1 (stereo unspecified)
-0.3%	Cc1cc(C)c(NC(=O)CN2C(=O)c3cccnc3Sc3ccccc32)c(C)c1
6.4%	CCOC(=O)c1cc2c(=O)n3ccccc3nc2n(Cc2ccco2)c1=NC(=O)c1cccc(C)c1
3.1%	C=C(C)CSc1nc2sc3c(c2c(=O)n1CCCC)CCCC3
3.3%	CCN(CC)c1nc(C#N)nc(OC)n1
-0.1%	COc1ccc(-c2nc3sc(CCNC(=O)C(=O)Nc4cc(F)ccc4F)c(C)n3n2)cc1
1.3%	CC(C)c1ccc2c(c1)NC(c1ccncc1)=NC(c1cccs1)=N2
1.3%	Cc1ccc(OCC(=O)OCc2cc(=O)n3nc(-c4cccs4)sc3n2)cc1
1.1%	Cc1cccc(N2CCN(C(=O)CN3C(=O)CSc4c3c(C)nn4-c3ccccc3)CC2)c1C
0.2%	COc1ccccc1-c1noc(-c2ccc(N3CCN(c4ccccc4)CC3)c([N+](=O)[O-])c2)n1
5.4%	COc1ccc(NC(=O)c2ccc3c(c2)c(C)c(C)n3Cc2ccc(F)cc2)c(OC)c1
0.3%	CSc1ccc(CCNc2ncnc3onc(C)c23)cc1
4.0%	Cc1ccccc1CN1CCC(CNC(=O)c2cc3ccc4cccnc4c3[nH]2)CC1
1.1%	COc1ccc(-c2cc(OC(=O)c3ccccc3Cl)c3c(C)oc(C)c3c(=O)c2)cc1OC
1.8%	CCN(CC)C(=O)CSc1nc2cc3c(cc2c(=O)n1Cc1ccc(C(=O)NCCc2ccc(OC)c(OC)c2)cc1)OCO3
-0.1%	COc1ccc(CCNC(=O)c2nc(SCc3ccc(F)cc3)ncc2Cl)cc1OC
-0.8%	CC(C)c1cnc2c(c1SCC(=O)Nc1ccc(OC(F)(F)F)cc1)c(=O)n(C)c(=O)n2C
4.6%	CC(C)c1ccc(NC(=O)Cn2c(=O)n(CC3CCC(C(=O)NCCc4ccccc4)CC3)c(=O)c3ccccc32)cc1 (stereo unspecified)
1.0%	COc1cccc2c1oc1c(SCc3nc4ccccc4[nH]3)nc(C)nc12
3.0%	Cc1ccc(CNC(=O)C(=O)NCC(c2cccs2)S(=O)(=O)c2cccs2)cc1 (stereo unspecified)
-1.0%	CCCN(CCC)CCNC(=O)CN1C(=O)COc2ccc(S(=O)(=O)N3CCC(C)CC3)cc21
0.8%	CC1=C(C(=O)N2CCN(c3ccccc3)CC2)C2(CCCCC2)OC1=O
0.8%	COc1ccccc1CNC(=O)c1oc2c(c1C)-c1nn(Cc3ccc(Cl)cc3)cc1CC2
7.8%	CC(C)(C)c1ccc(-c2noc(CCC(=O)Nc3cccc(Cl)c3)n2)cc1
0.5%	CCc1ccccc1NC(=O)Cn1nnc(-c2nc(-c3ccncc3)no2)c1N
1.5%	CCc1ccccc1NC(=O)CSc1nc2ncccc2o1
0.3%	CCOc1cc(C(=O)NCc2ccc3c(c2)CCN3C(=O)c2ccc(F)cc2)cc(OCC)c1OCC
-0.8%	CCCCCCCCNc1ccc(/C=C/c2ccnc3ccccc23)cc1
-0.6%	CCOc1ccc(NCc2cccn2-c2nnc(N3CCC(C(=O)NCCc4ccc(OCC)c(OCC)c4)CC3)s2)cc1
-0.7%	COCc1cc(C)nc2c1C(=O)NC(c1ccc(C)cc1)N2Cc1ccccc1 (stereo unspecified)
-0.4%	O=C(NCCc1ccc(Cl)cc1)c1cc(-c2ccc(Cl)cc2)n[nH]1
-0.7%	O=c1c2cc3c(cc2n(Cc2cccc(F)c2)c(=O)n1Cc1nc(-c2ccccc2)no1)OCO3
3.7%	CCc1nccn1S(=O)(=O)c1cc(Br)ccc1Br
1.2%	COc1ccc2c(c1)Cc1sc(NC(=O)c3cccc(C)c3)nc1-2
1.3%	COc1ccc(-n2c(=O)c3c4c(sc3n(Cc3c(F)cccc3Cl)c2=O)CN(C(C)=O)CC4)cc1OC
2.4%	COc1ccc(OC)c(/C=C/c2nc3ccccc3c(=O)n2-c2ccc(F)c(Cl)c2)c1
1.5%	COc1cc(NC(=O)CN2C(=O)c3ccccc3Sc3ccc(C(=O)N4CCCC4)cc32)cc(OC)c1
0.6%	Cc1ccc(-c2nc3ccccn3c2Nc2ccc3c(c2)OCCO3)o1
2.2%	CCC1CN(Cc2c(C)nc3sccn23)Cc2cc(OC)ccc2O1 (stereo unspecified)
3.2%	CCc1cccc(NC(=O)c2cn3c4c(ccc(Cl)c4c2=O)OC(C)C3)c1 (stereo unspecified)
0.5%	COc1cccc(C(=O)c2c(N)c(-c3nc(-c4ccccc4)cs3)c3ccccn23)c1
1.5%	Cc1ccc(Cn2ccnc2SCC(=O)Nc2ccc3c(c2)OCO3)cc1
-0.3%	CC(C)c1ccc(NC(=O)c2ccc(F)c(S(=O)(=O)N3CCCCCC3)c2)cc1
0.2%	COc1cc(C2c3c(oc4cc(C)c(C)cc4c3=O)C(=O)N2CCCN2CCOCC2)ccc1O (stereo unspecified)
-1.4%	COc1ccc(C(=O)Nc2ccccc2-c2nc(-c3ccc(OC)cc3)no2)cc1

Some of these compounds in order of formula weight, lowest first:
PINK1 expr mod	SMILES
0.8%	CC1=C(C(=O)N2CCN(c3ccccc3)CC2)C2(CCCCC2)OC1=O
1.5%	Cc1ccc(Cn2ccnc2SCC(=O)Nc2ccc3c(c2)OCO3)cc1
0.5%	CCc1ccccc1NC(=O)Cn1nnc(-c2nc(-c3ccncc3)no2)c1N
0.3%	CCOc1cc(C(=O)NCc2ccc3c(c2)CCN3C(=O)c2ccc(F)cc2)cc(OCC)c1OCC
